Assay outcomes (PubChem BioAssay)
A1 inhib: blocks A1 activity; MEF A1-2A-BIM cells, caspase-Glo luminescence, 3 h; percent of clofoctol signal, DMSO as zero; caspase activation, % (concentration not given with the values); 21,000 compounds, 0.51% hits;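 active means most replicate scores above 10, or exactly half above 10 with mean activity above 10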;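 further: effector caspase 3 and 7 activity cleaving a DEVD luciferin substrate; 50 nL library stock added to about 30 µL; numbers are from one replicate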
BJeLR viability: compounds reducing viability of BJeLR cells. 30,000 compounds, 0.64% hits. BJeLR fibroblasts viability, CellTiterGlo ATP luminescence, 48 h; HRASV12, hTERT and SV40 LT/ST transformed. viability loss activity score, % (test concentration not listed). AID 2275; in the data active means viability loss activity score above about 50%; about a fifth of its hits are not listed in these tables;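 further: higher score means fewer live cells and less ATP luminescence; stock transfer was 50 or 100 nL into about 30 µL; 0% = vehicle wells and 100% = a reference killing control; one replicate is shown; the record names a cut of 85%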
Starred values were filed as active, the others as inactive; . = not tested or not shown. A portion of the library (hit frequency here may not be typical).

structure | A1 inhib | BJeLR viability
C[C@@H]1CN([C@@H](C)CO)C(=O)c2cc(NS(=O)(=O)c3ccccc3)ccc2O[C@@H]1CN(C)Cc1ccc2c(c1)OCO2 | 0.0 | 4.0
C=C1CCC2C(C)(C)C(O)CCC2(C)C1CC/C(C)=C/C(=O)O (stereo not given) | 0.6 | 0.6
COc1ccc(C=Nc2ccc(Br)cc2)cc1 | -0.1 | -5.6
C=CCN(C(=O)Cc1ccc(OC)cc1)c1nnc(-c2ccc(Cl)cc2)s1 | -0.4 | -2.9
C[C@H](CO)N1C[C@H](C)[C@@H](CN(C)Cc2ccccc2)Oc2ccc(NC(=O)Cn3cnnn3)cc2C1=O | 0.0 | -2.9
C[C@H](CO)N1C[C@H](C)[C@@H](CN(C)C(=O)NC2CCCCC2)Oc2ccc(NC(=O)Nc3ccccc3)cc2C1=O | -0.3 | 4.3
O=C1CNC(=S)N1CCOc1ccccc1Cl | -0.7 | -3.2
C[C@@H]1CN([C@@H](C)CO)C(=O)c2cc(NC(=O)Nc3cccc4ccccc34)ccc2O[C@@H]1CN(C)CC1CCCCC1 | -0.2 | -4.0
CCOc1ccc(-c2c(C#N)c(N)nc(SCC(=O)c3ccc(Cl)cc3)c2C#N)cc1 | 16.4* | 4.2
C[C@@H]1CN([C@H](C)CO)C(=O)c2cccc(NC(=O)c3nc4ccccc4s3)c2O[C@H]1CN(C)CC1CC1 | . | -1.5
C[C@@H]1CN([C@H](C)CO)C(=O)c2cccc(NC(=O)c3cnccn3)c2O[C@H]1CN(C)Cc1ccc(C(F)(F)F)cc1 | . | 0.6
C[C@H]1CN([C@@H](C)CO)C(=O)c2cc(NC(=O)Nc3ccc4c(c3)OCO4)ccc2O[C@@H]1CN(C)C(=O)Nc1ccc(C(F)(F)F)cc1 | -0.2 | 2.5
COc1cc(N)c(Cl)cc1C(=O)O | 0.8 | 7.8
Cc1ccc(C(C)C)c(OCC(=O)NCCC23CC4CC(CC(C4)C2)C3)c1 | -0.9 | 2.2
C[C@H](CO)N1C[C@H](C)[C@@H](CN(C)Cc2ccncc2)Oc2ccc(NC(=O)Cc3cn(C)c4ccccc34)cc2C1=O | 0.0 | 1.3
CC(C)S(=O)(=O)c1csc(C(=O)OCC(=O)c2ccc(Cl)cc2)c1N | -0.5 | -2.9
Cc1ccc(S(=O)(=O)N(C)C[C@@H]2Oc3ccc(NC(=O)Cn4cnnn4)cc3C(=O)N([C@@H](C)CO)C[C@@H]2C)cc1 | 1.0 | 0.6
Cc1ccc2cc3cc(C(=O)NCCC4=CCCCC4)oc3nc2c1 | . | -6.0
NNC(=O)Cc1cccc2ccccc12 | 0.7 | -3.5
Cc1ccc(C(=O)CSc2nc3cc(C(F)(F)F)ccc3n2C(C)C)cc1 | 0.2 | -1.1

structure | A1 inhib | BJeLR viability
Cc1sc2ncnc(Sc3ncnc4sc(C)c(C)c34)c2c1C | 0.2 | -1.7
C[C@@H]1CN([C@H](C)CO)C(=O)c2cc(NC(=O)CCCN(C)C)ccc2O[C@H]1CN(C)CC1CCCCC1 | 0.0 | -1.2
Cc1noc(C)c1NC(=O)Nc1ccc2c(c1)C(=O)N([C@H](C)CO)C[C@H](C)[C@H](CN(C)Cc1ccc(C(=O)O)cc1)O2 | -0.7 | 2.3
O=C(Nc1cc(C(F)(F)F)cc(C(F)(F)F)c1)C(=S)NCCNc1cccc2ccccc12 | -0.4 | 2.9
Cc1noc(C)c1NC(=O)Nc1cccc2c1O[C@@H](CN(C)S(=O)(=O)c1ccc(Cl)cc1)[C@@H](C)CN([C@@H](C)CO)C2=O | . | 0.8
COc1ccc(S(=O)(=O)N(C)C[C@H]2Oc3c(NC(=O)Nc4ccc5c(c4)OCO5)cccc3C(=O)N([C@@H](C)CO)C[C@@H]2C)cc1 | . | -5.4
CC(C)=CCc1cc2c(cc1O)O[C@H]1c3ccc(O)c(O)c3OC[C@@H]21 | 8.2 | 8.1
Cc1c(Cc2ccc(Cl)cc2)c(=O)n2c([nH]c3ccccc32)c1C#N | -0.4 | 10.0
CC(C)NC(=O)Nc1ccc2c(c1)C(=O)N([C@H](C)CO)C[C@H](C)[C@@H](CN(C)Cc1ccc(Cl)c(Cl)c1)O2 | -0.2 | -0.3
CCCC(=O)Nc1ncnc2c1ncn2C1O[C@@H]2COP(=O)(O)O[C@H]2[C@H]1OC(=O)CCC (stereo not given in full) | -0.4 | 2.0
O=C(Cn1nc(C(F)(F)F)c2c1CCCC2)N(Cc1ccccc1)Cc1ccccc1 | -0.3 | -0.1
Cc1ccccc1-n1c(-c2ccc(Br)cc2)n[nH]c1=S | 0.0 | -8.2
CSC(N)=Nc1csc(C(F)(F)F)c1-c1ccccc1 | -0.2 | 4.2
O=C(C[n+]1ccccc1)Nc1c2c(nc3c1CCC3)CCCC2 | 0.3 | 0.6
CC(C)NC(=O)N(C)C[C@@H]1Oc2ccc(NC(=O)Cn3cnnn3)cc2C(=O)N([C@H](C)CO)C[C@H]1C | -0.7 | 0.5
CCOC(=O)c1ccc(NC(=O)CC2C(=O)N(c3ccc(F)cc3)C(=O)N2Cc2cccs2)cc1 (stereo not given) | . | -0.4
C=C1C[C@@]23CCC4[C@](C)(C(=O)O)CCC[C@@]4(C)[C@]2(O)CCC1C3 (stereo not given in full) | -0.3 | -1.8
C[C@H]1CN([C@@H](C)CO)C(=O)c2cccc(NC(=O)c3ccc(-c4nccs4)cc3)c2O[C@H]1CN(C)S(C)(=O)=O | . | 12.5
COc1ccc(NC(=O)Nc2cccc3c2O[C@@H](CN(C)CC2CCCCC2)[C@H](C)CN([C@@H](C)CO)C3=O)cc1 | . | 2.1
Cc1noc(C)c1NC(=O)Nc1cccc2c1O[C@@H](CN(C)Cc1ccc(Cl)c(Cl)c1)[C@@H](C)CN([C@H](C)CO)C2=O | . | 2.0

Pulled one by one from above, 6 records:
structure | A1 inhib | BJeLR viability
CC(C)NC(=O)Nc1ccc2c(c1)C(=O)N([C@H](C)CO)C[C@H](C)[C@@H](CN(C)Cc1ccc(Cl)c(Cl)c1)O2 | -0.2 | -0.3
CCCC(=O)Nc1ncnc2c1ncn2C1O[C@@H]2COP(=O)(O)O[C@H]2[C@H]1OC(=O)CCC (stereo not given in full) | -0.4 | 2.0
Cc1noc(C)c1NC(=O)Nc1cccc2c1O[C@@H](CN(C)S(=O)(=O)c1ccc(Cl)cc1)[C@@H](C)CN([C@@H](C)CO)C2=O | . | 0.8
C[C@@H]1CN([C@H](C)CO)C(=O)c2cc(NC(=O)CCCN(C)C)ccc2O[C@H]1CN(C)CC1CCCCC1 | 0.0 | -1.2
O=C(Nc1cc(C(F)(F)F)cc(C(F)(F)F)c1)C(=S)NCCNc1cccc2ccccc12 | -0.4 | 2.9
Cc1noc(C)c1NC(=O)Nc1ccc2c(c1)C(=O)N([C@H](C)CO)C[C@H](C)[C@H](CN(C)Cc1ccc(C(=O)O)cc1)O2 | -0.7 | 2.3

The list continues.
structure | A1 inhib | BJeLR viability
Cn1nnnc1SCC1=C(C(=O)O)N2C(=O)[C@@H](NC(=O)[C@H](O)c3ccccc3)[C@H]2SC1 | 0.6 | -3.3
N#Cc1c(-c2ccccc2)cc(-c2ccccc2)nc1SCC(O)CS(=O)Cc1ccccc1 (stereo not given) | -1.0 | -4.6
Cc1noc(C)c1NC(=O)Nc1ccc2c(c1)C(=O)N([C@@H](C)CO)C[C@H](C)[C@@H](CN(C)C(=O)Nc1ccccc1)O2 | 0.2 | 14.5
C[C@@H]1CN([C@@H](C)CO)C(=O)c2cc(NC(=O)NC3CCCCC3)ccc2O[C@@H]1CN(C)S(=O)(=O)c1cccs1 | -0.3 | 5.0
CC(C)COC(=O)C(C)Oc1ccc2c3c(c(=O)oc2c1)CCC3 (stereo not given) | -0.2 | -1.0
COC(CNC(=O)CN1C(=O)/C(=C\c2ccc(Cl)cc2)Oc2ccc(C(C)(C)C)cc21)OC | 0.1 | -0.7
CCOc1ccccc1NC(=O)c1ccc(Br)cc1 | -1.1 | 1.3
C[C@@H]1CN([C@H](C)CO)C(=O)c2cc(NS(=O)(=O)c3ccc(Cl)cc3)ccc2O[C@@H]1CN(C)Cc1ccc(-c2ccccc2)cc1 | 2.1 | -2.4
Cc1ccc2nc(Nc3ccccc3)cc(C)c2c1 | 0.1 | 6.6
CCC(Cc1ccccc1)NS(=O)(=O)c1ccc2c(c1)CC(C)N2C(=O)C1CC1 (stereo not given) | -0.5 | -1.8
COC(=O)C1c2ccccc2Oc2ccccc21 | 0.4 | 1.3
Cc1ccc(S(=O)(=O)Nc2ccc3c(c2)C(=O)N([C@@H](C)CO)C[C@@H](C)[C@@H](CN(C)Cc2ccncc2)O3)cc1 | 0.3 | -1.0
O=C(N(c1ccccc1)c1ccc(F)cc1)C12CC3CC(CC(C3)C1)C2 | -0.3 | 1.6
CCN(CC)CCOC(=O)C1(c2ccc([N+](=O)[O-])cc2)CCCC1 | 0.5 | -1.9
C[C@@H]1CN([C@@H](C)CO)C(=O)c2cc(NS(=O)(=O)c3cn(C)cn3)ccc2O[C@H]1CN(C)C(=O)Nc1ccccc1 | 0.5 | 1.0
C[C@H](CO)N1C[C@H](C)[C@@H](CN(C)S(=O)(=O)c2cccs2)Oc2c(NC(=O)C3CC3)cccc2C1=O | . | 1.5
C[C@H]1CN([C@@H](C)CO)C(=O)c2cccc(NS(=O)(=O)c3ccc(Cl)cc3)c2O[C@H]1CN(C)S(=O)(=O)c1cccs1 | . | -1.2
C[C@@H]1CN([C@@H](C)CO)C(=O)c2cc(NS(=O)(=O)c3ccccc3)ccc2O[C@H]1CN(C)S(=O)(=O)c1cn(C)cn1 | -0.1 | -0.5
Cc1oc(-c2ccc(Cl)cc2)cc1C(=O)N1CCC(O)(c2ccc(Cl)cc2)CC1 | -1.3 | 2.7
Cc1nc(C)c(Oc2ccc(Cl)cc2Cl)c(=O)[nH]1 | 1.5 | 2.7

structure | A1 inhib | BJeLR viability
CSc1nc2sc3c(c2c(=O)n1CC(C)C)CCC3 | 0.3 | -2.6
Cc1noc(C)c1NC(=O)Nc1cccc2c1O[C@H](CN(C)Cc1ccc(Cl)c(Cl)c1)[C@H](C)CN([C@@H](C)CO)C2=O | . | 0.8
Cc1ccc2c(c1)C(c1ccccc1)CC(C)N2C(=O)c1ccccc1F (stereo not given) | 0.3 | 6.0
CC1Cc2ccccc2N1C(=O)CCn1c(=O)oc2ccccc21 (stereo not given) | . | -10.1
CNC[C@@H]1Oc2c(NC(=O)c3cnccn3)cccc2C(=O)N([C@@H](C)CO)C[C@@H]1C | . | -2.0
O=C(NCC1COc2ccccc2O1)c1cc2ccccc2o1 (stereo not given) | -0.9 | -3.7
COc1nc(Nc2ccccc2)nc(OCC(F)(F)F)n1 | -1.9 | -8.0
Cc1cc(C)c(O)c(C(=O)CC2CC(=O)NC(=O)C2)c1 | -1.2 | -4.3
C[C@@H]1CN([C@H](C)CO)C(=O)c2cc(NC(=O)C3CC3)ccc2O[C@@H]1CN(C)C(=O)Nc1ccc(F)cc1 | 0.0 | -0.3
C[C@@H]1CN([C@@H](C)CO)C(=O)c2cc(N(C)C)ccc2O[C@@H]1CN(C)Cc1ccccc1 | -0.1 | -4.7
COc1ccc(NC(=O)Nc2cccc3c2O[C@H](CN(C)C(=O)NC(C)C)[C@@H](C)CN([C@@H](C)CO)C3=O)cc1 | . | 0.9
CCOC(=O)c1c[nH]c(=S)[nH]c1=O | . | 2.5
C[C@H]1CN([C@@H](C)CO)C(=O)c2cc(NC(=O)Nc3ccc4c(c3)OCO4)ccc2O[C@H]1CN(C)S(=O)(=O)c1ccc(Cl)cc1 | 1.2 | -0.1
CCN1CCC[C@H]1CNC(=O)c1c(O)c(Cl)cc(Cl)c1OC | -0.4 | 0.9
CN(C(=O)c1noc2c1CSc1ccccc1-2)c1cccc(C(F)(F)F)c1 | 0.1 | 1.6
CC1=NNC(=O)/C1=C\c1cn(-c2ccccc2)nc1-c1ccc(F)cc1 | 95.8* | 88.4*
C[C@H]1CN([C@@H](C)CO)C(=O)c2cc(NC(=O)Cc3cn(C)c4ccccc34)ccc2O[C@H]1CN(C)C(=O)Nc1ccc(F)cc1 | 1.2 | -6.7
C[C@H]1CN([C@@H](C)CO)C(=O)c2cc(NC(=O)CCCN(C)C)ccc2O[C@@H]1CN(C)CC1CC1 | -0.5 | -0.3
C[C@H](CO)N1C[C@H](C)[C@@H](CN(C)Cc2ccc(C(=O)Nc3ccccc3N)cc2)Oc2ccc(NC(=O)c3ccncc3)cc2C1=O | . | 0.1
CC(C)c1ccc(NC(=O)C2CCC(CNS(=O)(=O)c3cccc4nsnc34)CC2)cc1 (stereo not given) | . | 10.3

structure | A1 inhib | BJeLR viability
CCOc1ccc(C2=C(CN(C)C)C(c3ccc(F)cc3)c3ccccc3O2)cc1 (stereo not given) | -0.6 | 4.7
C[C@H](CO)N1C[C@H](C)[C@H](CN(C)Cc2ccc(Cl)c(Cl)c2)Oc2c(NC(=O)C3CCOCC3)cccc2C1=O | . | 3.1
COc1ccc(-c2cc(C(=O)N(C)Cc3ccccc3)no2)cc1 | . | 3.7
COc1cc(C[C@@H]2CO[C@@H](c3ccc(O)c(OC)c3)[C@@H]2CO)ccc1O | -0.6 | 1.9
Cc1nn(C)c(C)c1S(=O)(=O)N1CCC(C(=O)NC2CCCCCC2)CC1 | . | -0.7
CCCCCc1c2c(cc(O)c1C(=O)O)OC(=O)c1c(cc(OC)cc1C(=O)CCCC)O2 | 0.3 | -0.7
CCOC(=O)c1oc2nc(-c3ccco3)cc(-c3ccco3)c2c1N | -0.7 | 0.1
Cc1ccc(-n2c(SCC(=O)C(C)(C)C)nc3ccccc3c2=O)cc1 | -1.0 | 3.9
CC(C)NC(=O)Nc1ccc2c(c1)C(=O)N([C@@H](C)CO)C[C@@H](C)[C@H](CN(C)C(=O)NC(C)C)O2 | 1.0 | -0.7
Cc1noc(C)c1S(=O)(=O)Nc1ccc2c(c1)C(=O)N([C@H](C)CO)C[C@@H](C)[C@@H](CN(C)C(=O)Nc1cccc3ccccc13)O2 | 0.4 | 3.9
CN(C)C(=O)N1CCCC(C(=O)NCc2ccccc2)C1 (stereo not given) | 0.2 | -8.3
